ALR H2O2 inh – inhibitors of human sulfhydryl oxidase ALR; P55789; purified ALR, DTT oxidation, H2O2 HRP-luminol luminescence; inhibition, % (concentration not given with the values); actives 3.8% (n = 290,000); AID 485317;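 active = mean and each replicate at 75% or more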;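 note: stock transfer was 7.5 nL into about 7.5 µL; 0% = neutral wells and 100% = wells with inactivated enzyme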
UCH37 DUB inh – blocks the human deubiquitinase UCH37 | purified proteasome/UCH37, Ub-AMC cleavage fluorescence | Q9Y5K5 | actives 0.33% (n = 330,000) | inhibition, % (concentration not given with the values);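 active = mean of two replicates above 20%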;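 note: 0% = compound-free wells with enzyme and 100% = wells lacking proteasome; stock transfer was 100 nL into about 20 µL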
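Assay system: Proteasome-bound UCH37. Buffer or medium: pH 7.4 Tris-HCl (50 mM) with ovalbumin, ATP-MgCl2, DTT. Incubation: 30 min preincubation with enzyme, 25 min cleavage at room temperature. Measured by: fluorescence, ex 355 nm, em 460 nm. Read-out basis: percent inhibition. Control set: wells without proteasome as full block, compound-free enzyme plus substrate as uninhibited.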
FGF22 binding – binders of recombinant human FGF22 by thermal shift. SYPRO orange fluorescence; percent of sucrose octasulfate shift, DMSO zero. calls only at 9.99 µM. actives 1.5% (n = 340,000);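 active = melting point raised past a set limit in the mean and every replicate; three in four hits are not shown here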
Target sequence (Q9HCT0 whole entry, looked up): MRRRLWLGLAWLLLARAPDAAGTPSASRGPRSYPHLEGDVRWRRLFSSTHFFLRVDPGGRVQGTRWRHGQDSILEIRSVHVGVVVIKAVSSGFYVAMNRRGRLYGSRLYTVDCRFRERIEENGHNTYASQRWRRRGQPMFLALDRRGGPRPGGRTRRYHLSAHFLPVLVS
LANA-H2A inh – blocks KSHV LANA binding to histone H2A/H2B. inhibition, % (no concentration beside the values). actives 0.6% (n = 320,000). cell-free LANA-H2A/H2B peptide, fluorescence polarization. Q9QR71; in the data active = inhibition mostly above about 10%, no sharp cut-off; inactive = mostly below about 6.7%;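 note: stock transfer was 7.5 nL into about 10 µL; 0% = median of vehicle wells and 100% = median of positive control wells; one replicate is shown; the record names a cut of 25% in any replicate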
Beta2AR agonist – human beta-2 adrenergic receptor agonism by FAP; actives 0.43% (n = 340,000); P07550; Am2.2-beta2AR cells, FAP receptor internalization, flow cytometry; reference of the scale not given here; response, % (no concentration beside the values);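 active = response above a set limit, near 3 SD of response in nonfluorescent compounds, cut at about 42% in these data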;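 note: stock transfer was 100 nL into about 11 µL; a reference agonist was the positive control; negative values mostly stem from fluorescent compounds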
Target sequence (P07550 whole entry, looked up): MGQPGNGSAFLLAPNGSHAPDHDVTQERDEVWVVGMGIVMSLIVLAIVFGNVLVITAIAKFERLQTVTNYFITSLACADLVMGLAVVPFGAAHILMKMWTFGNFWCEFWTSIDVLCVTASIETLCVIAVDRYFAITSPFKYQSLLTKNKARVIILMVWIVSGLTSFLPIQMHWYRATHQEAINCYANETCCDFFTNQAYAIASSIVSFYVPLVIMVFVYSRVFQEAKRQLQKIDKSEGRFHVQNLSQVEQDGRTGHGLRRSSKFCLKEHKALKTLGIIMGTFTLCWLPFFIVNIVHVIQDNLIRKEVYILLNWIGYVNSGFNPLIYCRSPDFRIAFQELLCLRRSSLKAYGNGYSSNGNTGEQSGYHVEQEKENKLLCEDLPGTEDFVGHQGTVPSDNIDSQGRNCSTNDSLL
HNF4A DNA FP – change in binding of human HNF4 alpha to DNA. activity change, % at 10 µM. HNF4a-FITC DNA binding, fluorescence polarization, 1 h. P41235. actives 0.3% (n = 360,000). AID 1224865; in the data active = activity change above about 30%, passing the limit was not always enough;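 note: controls were the assay level and a saturating level of protein; the project sought stronger binding though the title names inhibitors; some compounds called inactive have numbers as strong as hits; positive values seem to mean higher polarization but the record does not say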
Target sequence (P41235 whole entry, looked up): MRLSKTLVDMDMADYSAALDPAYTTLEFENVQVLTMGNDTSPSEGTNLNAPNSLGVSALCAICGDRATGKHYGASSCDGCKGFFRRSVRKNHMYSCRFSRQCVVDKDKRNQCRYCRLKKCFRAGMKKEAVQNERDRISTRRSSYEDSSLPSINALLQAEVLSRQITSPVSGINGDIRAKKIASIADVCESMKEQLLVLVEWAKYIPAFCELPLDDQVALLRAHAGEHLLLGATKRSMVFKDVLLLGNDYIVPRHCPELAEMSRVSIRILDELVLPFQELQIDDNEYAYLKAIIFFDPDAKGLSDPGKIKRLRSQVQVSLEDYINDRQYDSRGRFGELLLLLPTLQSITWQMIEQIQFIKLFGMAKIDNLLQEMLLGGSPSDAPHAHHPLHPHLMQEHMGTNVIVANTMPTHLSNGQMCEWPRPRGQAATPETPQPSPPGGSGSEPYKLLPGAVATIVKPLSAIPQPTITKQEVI
Ecoli growth – inhibitors of Escherichia coli growth. OD600, 23 h; hits give low values. OD600 absorbance (concentration not given with the values). actives 0.21% (n = 330,000). AID 1053175;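 active = OD600 absorbance below the run mean of sample wells minus 3.6 SD, in any replicate, cut at about 0.56 in these data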;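 note: stock transfer was 300 nL into about 60 µL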
An asterisk follows results filed as active; i = inactive; / = not tested or not shown. A portion of the library, so the mix of outcomes need not match the whole.

SMILES	ALR H2O2 inh	UCH37 DUB inh	FGF22 binding	LANA-H2A inh	Beta2AR agonist	HNF4A DNA FP	Ecoli growth
Cc1ccc(-n2ncc(C(=O)O)c2C2CCN(C(=O)OC(C)(C)C)CC2)cc1	-21	-0.4	/	-2.8	2	2.5	0.71
COC(=O)c1[nH]c2ccc(C)cc2c1NC(=O)Oc1ccccc1	5	-9.9	/	-3.8	-2	-1.3	0.69
Cc1cc(C)cc(N(CC(=O)Nc2cc(C)ccc2C)S(=O)(=O)c2c(C)[nH]c(=O)[nH]c2=O)c1	34	1.6	i	/	4	-1.0	0.65
CCc1ccc(-c2ccc3nnc(SCC(N)=O)n3n2)cc1	/	-44	i	0.9	-8	1.2	0.73
O=C(c1cccs1)N1CCN=C1SCc1ccc(F)cc1	-3	3.6	i	2.0	-6	-5.1	0.71
CN(CC(=O)NC1CCCCC1)S(=O)(=O)c1cccc2nsnc12	-15	3.5	/	1.0	0	1.1	0.71
Cc1ccc(C)c(NC(=O)c2cnn(-c3ccccc3)c2C)c1	/	1.2	i	-2.8	-4	-1.1	0.68
COc1cc(CN2CCN(C(O)(c3ccccc3)c3ccccc3)CC2)cc(OC)c1OC	-5	/	i	-1.5	10	-3.3	/
CCCN(C(=O)c1cc(S(=O)(=O)N2CCCCC2)ccc1Cl)C1CCS(=O)(=O)C1 (stereo unspecified)	0	4.1	i	3.4	-5	-0.4	0.67
O=C(C[n+]1cc(-c2ccc(Cl)c(Cl)c2)n2c1CCC2)c1cccs1	0	7.3	i	0.3	-5	5.4	0.69
Cc1ccc(C2NC(c3ccc(C)cc3)C(C)C(=O)C2C)cc1 (stereo unspecified)	-22	0.5	i	2.4	-7	1.2	0.66
COCCNC(=O)C(=O)Nc1cc2c3c(c1)CC(=O)N3CCC2	-2	4.0	i	2.4	3	-1.0	0.66
CCN(CC(=O)Nc1ccc(NC(C)=O)cc1)C(=O)c1cc(-c2ccccc2Cl)nc2ccccc12	/	-1.9	i	/	19	2.3	0.7
O=C(COC(=O)c1cccc(Cl)c1)NC1CCS(=O)(=O)C1 (stereo unspecified)	/	1.2	i	/	4	1.2	0.65
Cc1ccc2nc(SCC(=O)c3c(N)n(C4CC4)c(=O)[nH]c3=O)[nH]c2c1	/	8.3	i	/	-8	-1.7	0.71
CC(=O)Nc1ccc(S(=O)(=O)N(C)CC(=O)OC(C)C(=O)NC2CCCC2)cc1 (stereo unspecified)	-4	-1.2	i	3.5	2	3.5	0.73
COc1ccc(-n2c(SCC(=O)O)nc3sc4c(c3c2=O)CCCC4)cc1	2	5.6	i	0.3	5	0.4	0.62
COC(=O)C(CCSC)NC(=O)Cn1ncc2c(=O)oc3ccccc3c21 (stereo unspecified)	/	0.2	i	0.9	8	-1.1	0.8
Cc1[nH]c(C)c2c(=O)n(Cc3ccccc3Cl)ncc12	/	/	i	/	3	3.0	/
Cc1cc(-c2ccc(/C=N/n3cnnc3)o2)c(C)c([N+](=O)[O-])c1	2	/	i	0.0	8	-2.3	/
CC(C)(C)Sc1ccc(N)nc1	1	-3.0	/	-8.7	2	1.9	0.68
COc1cc(/C=N/NC(=O)Cc2ccccc2)ccc1Oc1ccc([N+](=O)[O-])cc1[N+](=O)[O-]	-2	/	/	-0.5	11	0.9	/
CC(=O)c1ccc(NC(=O)C(C)Sc2nnc(C3CCCCC3)o2)cc1 (stereo unspecified)	2	/	i	0.1	/	/	/
Cc1ccc(C(=O)NCCCNC(=O)c2ccco2)cc1C	4	1.2	i	-1.1	-10	-3.3	0.68
Cc1ccccc1OCCSc1nc2ccccc2n1CCC(=O)O	-13	3.9	i	-2.8	6	-2.2	0.7
CCN(CC)C(=O)c1sc2nc(-c3ccccn3)[nH]c(=O)c2c1C	-7	-8.7	i	-0.4	-3	-0.4	0.73
O=C(Cc1c(F)cccc1Cl)NCCCn1ccnc1	-1	1.4	/	-8.1	-8	0.7	0.66
Cc1cc(C)c(NC(=O)CS)c(Cl)c1	-13	4.0	i	18*	5	3.6	0.72
CCC(Oc1ccccc1)C(=O)Nc1nnc(S(=O)(=O)Nc2ccccc2)s1 (stereo unspecified)	/	1.9	i	-2.9	2	-3.3	0.74
OCC[C@H]1C[C@H](O)[C@@H](O)[C@]2(CCCO2)O1	-6	1.4	i	-0.8	1	-2.6	/
Cc1cc(N)n2nc(-c3ccccc3)c(-c3ccccc3)c2n1	/	-80	/	-2.1	-4	5.7	0.65
O=C(COC(=O)/C=C/c1cccc(C(F)(F)F)c1)NCc1ccccc1	-6	-0.6	i	10	-3	2.9	0.7
CN(C)C(=O)COc1ccc(Oc2ccccc2)cc1	-1	-0.9	i	0.1	1	2.0	0.72
CCOC(=O)C1CCN(C(=O)C2CCCN(c3ncnc4c3nc3n4CCCCC3)C2)CC1 (stereo unspecified)	-2	1.8	i	-2.4	4	-1.7	0.7
O=S1(=O)N=C(Nc2ccc(S(=O)(=O)N3CCCCC3)cc2)c2ccccc21	-2	4.5	/	-1.1	-2	2.1	0.73
Cc1ccc(CCNC(=O)c2cc(S(=O)(=O)N3CCCC3)cn2C)cc1	-2	0.7	i	-0.7	-10	0.0	0.71
CC(C)(C)NS(=O)(=O)c1ccc(CCC(=O)NCc2cccnc2)cc1	-7	0.4	/	6.4	-10	5.7	0.68
O=C(Nc1cccc(S(=O)(=O)N2CCCCC2)c1)C1CCCN1S(=O)(=O)c1ccccc1F (stereo unspecified)	-8	0.2	i	4.7	8	-1.5	0.64
CCCCn1c(SCC(=O)NC2CC2)nnc1-c1ccncc1	-2	5.8	i	3.0	-29	-2.8	0.67
CC(C)c1[nH]nc2c1C(c1cccs1)C(C#N)=C(N)O2 (stereo unspecified)	23	3.8	/	3.5	6	-1.8	0.69
COc1cccc(NC(=O)N2CCN(c3cccc(C)c3)C(C)C2)c1 (stereo unspecified)	99*	-2.3	/	0.9	6	-0.5	0.67
O=C(NCCc1ccccc1)c1cccc(S(=O)(=O)N2CCCCC2)c1	50	-1.1	i	-0.5	-1	-3.8	0.65
O=C(Cc1c(F)cccc1Cl)NCc1cccnc1	/	2.7	i	-6.9	2	-2.4	0.62
CCOC(=O)Nc1ccc(N2CCOCC2)c(S(=O)(=O)N2CCOCC2)c1	-15	2.6	i	6.6	1	-3.2	0.72
CCOC(=O)c1c(SC)n(-c2ccccc2)c(=S)n(-c2ccccc2)c1=O	6	0.3	i	1.1	15	0.5	0.7
O=C(O)c1cccc(NC(=S)NC(=O)c2cccc(OCc3ccccc3)c2)c1	98*	2.7	i	1.4	-5	0.3	0.62
CCOc1ccc(C(C)=O)cc1N1C(=O)C2C3C=CC(C3=C(C)C)C2C1=O (stereo unspecified)	-2	2.8	i	-9.1	-7	2.4	0.63
CCOC(=O)c1ccccc1OCc1cc(/C=N/n2cnnc2)ccc1OC	-2	/	/	-0.3	-6	0.2	/
CCc1cccc(NC(=O)Nc2ccc3c(c2)OCO3)c1	-12	0.8	/	-2.0	2	-3.8	0.64
CCOc1ccc(CCNC(=O)COC(=O)c2ccccc2O)cc1OCC	-19	-1.6	i	-1.2	-4	-2.9	0.7
COc1cc(OC)c(OC)cc1CN(C)CCc1ccccn1	/	4.2	/	-1.8	-6	-2.2	0.74
COc1cnc(-c2ccccn2)nc1Sc1cccc(Cl)c1	2	2.4	/	-0.9	-3	-4.3	0.68
COc1ccc(/C=C/CN2CCN(Cc3ccc(C)cc3)C(CCO)C2)cc1 (stereo unspecified)	-1	-1.8	i	1.1	0	1.3	0.7
COc1ccc(N(CC(=O)N2CCc3ccccc32)S(=O)(=O)c2c(C)nn(C)c2C)cc1	/	4.5	i	2.5	-17	-1.9	0.71
COc1ccc(NC(=S)NCc2ccco2)cc1	-1	/	/	0.5	1	2.4	0.7
COc1ccc(N(CC(=O)NCCSC2CCCCC2)S(=O)(=O)c2ccccc2)c(OC)c1	-19	/	i	12	2	-3.1	/
Cc1ccn2c(=O)nc(SCC(=O)NCc3ccccc3)nc2c1	-8	-3.5	i	-3.3	4	3.0	0.64
O=C(COc1ccc(NC(=O)c2ccccc2)cc1)c1ccccc1	-7	0.8	i	3.4	4	-0.8	0.67
O=C(COC(=O)CN1C(=O)c2ccccc2C1=O)Nc1ncc(Cl)cc1Cl	-4	/	/	-0.2	4	4.6	0.7
O=C(CSc1ccccn1)N/N=C/c1cccc([N+](=O)[O-])c1	-3	/	i	-2.5	0	0.1	/

Random excerpt: 3 records from the list, in no set order.
SMILES	ALR H2O2 inh	UCH37 DUB inh	FGF22 binding	LANA-H2A inh	Beta2AR agonist	HNF4A DNA FP	Ecoli growth
Cc1cc(N)n2nc(-c3ccccc3)c(-c3ccccc3)c2n1	/	-80	/	-2.1	-4	5.7	0.65
O=C(Cc1c(F)cccc1Cl)NCCCn1ccnc1	-1	1.4	/	-8.1	-8	0.7	0.66
O=C(C[n+]1cc(-c2ccc(Cl)c(Cl)c2)n2c1CCC2)c1cccs1	0	7.3	i	0.3	-5	5.4	0.69

Molecules shown so far that contain a nitro group on carbon:
SMILES	ALR H2O2 inh	UCH37 DUB inh	FGF22 binding	LANA-H2A inh	Beta2AR agonist	HNF4A DNA FP	Ecoli growth
Cc1cc(-c2ccc(/C=N/n3cnnc3)o2)c(C)c([N+](=O)[O-])c1	2	/	i	0.0	8	-2.3	/
COc1cc(/C=N/NC(=O)Cc2ccccc2)ccc1Oc1ccc([N+](=O)[O-])cc1[N+](=O)[O-]	-2	/	/	-0.5	11	0.9	/
O=C(CSc1ccccn1)N/N=C/c1cccc([N+](=O)[O-])c1	-3	/	i	-2.5	0	0.1	/

Continued.
SMILES	ALR H2O2 inh	UCH37 DUB inh	FGF22 binding	LANA-H2A inh	Beta2AR agonist	HNF4A DNA FP	Ecoli growth
O=c1cc2c(=O)oc3cc(O)c(O)oc3c2c(O)c1O	/	16	i	/	-2	-81	0.68
CC(C)=NNc1nc2sc3c(c2c(=O)[nH]1)CC(C)(C)OC3	9	-16	/	-5.6	-5	2.4	0.65
Cc1ccc(C)c(NC(=S)NCCc2ccc(S(N)(=O)=O)cc2)c1	0	5.7	/	1.8	3	-1.3	0.71
O=C(CSc1nnc(CNC(=O)c2ccc(F)cc2)o1)NCc1ccc2c(c1)OCO2	-8	-2.4	i	2.2	-6	0.2	0.72
Cc1ccc(/C=C/C(=O)N2CCCC(C)C2)cc1 (stereo unspecified)	-9	3.1	i	4.4	5	0.7	0.68
CC1CCN(CC(C)CNC(=O)c2cc(-c3ccccn3)nc3ccccc23)CC1 (stereo unspecified)	6	0.1	i	0.0	-16	1.1	0.67
COc1ccccc1CNC(=O)C(=O)NCC1OCCN1C(=O)c1cccs1 (stereo unspecified)	-1	1.1	i	-6.4	-17	1.6	0.7
O=C1N/C(=N\c2ccccn2)SC1Cc1ccc(Cl)cc1 (stereo unspecified)	-7	6.1	i	-2.3	-28	0.9	0.71
CC(C)(C)[C@@H]1C=C(C(=O)O)O[C@H](OCCCCO)C1	-3	2.0	i	2.1	1	1.1	/
Cn1c(=O)c2c(nc(NCc3ccccc3)n2CC(N)=O)n(C)c1=O	1	-0.7	i	-11	4	3.5	0.64
COc1ccc(/C(O)=C2/C(=O)C(=O)N(CCN(C)C)C2c2cccnc2)cc1C (stereo unspecified)	6	12	i	-1.2	4	0.2	0.7
COc1ccccc1OCCC(=O)Nc1cccc(S(=O)(=O)N2CCOCC2)c1	-6	0.4	i	-1.8	-3	1.1	0.68
CC1=NN(c2ccccc2)C(=O)/C1=C/C=C/c1ccc(N(C)C)cc1	/	8.2	i	/	12	-1.1	0.76
CCNC(=O)CC1C(=O)N(c2ccc(F)cc2)C(=O)N1CCc1ccc(OC)cc1 (stereo unspecified)	-4	4.6	/	-4.4	-5	1.6	0.73
CCN(CC(=O)NCc1ccc(F)cc1)CC(=O)Nc1ccccc1-c1ccccc1	-64	0.1	i	1.9	18	-1.5	0.68
O=C(Cc1ccc(Cl)cc1)Nc1ccncc1	2	-1.4	i	-1.9	-3	0.7	0.7
C/C(=N\NC(=O)Cc1cccc2ccccc12)c1ccncc1	-2	/	/	6.4	6	-1.6	/
CCOC(=O)c1nnn2c1nc(N1CCCCC1)c1ccccc12	0	2.1	i	-4.5	-1	3.4	0.65
Cn1c(=O)[nH]c2c(c(C(=O)O)nn2C)c1=O	/	0.4	/	/	1	-1.1	0.63
